GIV Gai3 FP = inhibitors of GIV peptide binding to Galpha-i3, primary screen, biochemical, fluorescence polarization, FITC-GIV GBA peptide, rat Galphai3; Guanine nucleotide-binding protein G(i) subunit alpha-3 (Rattus norvegicus), P08753; 90 min; active compounds read low; scaled: aluminum fluoride 0%, vehicle 100%; percent of control (FP), % (no concentration beside the values); 210,000 tested, 0.42% active; AID 1224905, 2016;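 active = replicate mean at 85% of control or lower, very high polarization wells dropped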;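 note: wells of about 15 µL received 100 nL stock; the first replicate is given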
Target sequence (P08753 whole entry, looked up): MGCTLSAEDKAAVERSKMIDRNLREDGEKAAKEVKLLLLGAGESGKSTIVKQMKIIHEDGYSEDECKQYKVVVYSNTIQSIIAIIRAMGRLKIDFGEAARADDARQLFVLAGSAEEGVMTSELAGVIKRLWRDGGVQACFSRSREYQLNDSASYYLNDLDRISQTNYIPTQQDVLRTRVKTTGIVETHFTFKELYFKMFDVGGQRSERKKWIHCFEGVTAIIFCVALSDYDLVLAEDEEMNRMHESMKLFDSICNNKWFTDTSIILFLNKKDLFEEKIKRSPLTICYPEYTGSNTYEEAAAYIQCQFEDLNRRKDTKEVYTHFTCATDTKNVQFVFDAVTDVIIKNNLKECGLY
Sa growth 42C = S. aureus growth inhibition at 42 and 30 °C, primary screen, LtaS inhibitor project, RN4220, two temperatures | OD600, 20 h, 42 °C; active compounds read low | relative growth, % (concentration not given with the values) | 170,000 tested, 0.53% active | AID 720641, 2013;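 active = growth at 42 °C up to 50% and 20 or more points under that at 30 °C, or under 10% at both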;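 note: 300 nL library stock went into each well; scaled to the means of positive and negative controls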
HCMV UL50-53 inh = inhibitors of HCMV UL50-UL53 interaction, biochemical, HTRF; HCMV UL50-UL53 nuclear egress complex (human cytomegalovirus); normalized percent inhibition; inhibition, % (concentration not given with the values); 190,000 tested, 0.15% active; AID 1918969, 2023;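 active = both replicates at 50% or more, plus weaker picks with an unusually low signal ratio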;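 note: stock transfer was 100 nL into about 20 µL; 0% = negative control wells and 100% = wells with untagged competitor protein; inactives centre near -12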
Sa growth 42C second temp = also measured in Sa growth 42C; calls as there; relative growth, %; measured here: growth at 30 °C;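 optical density after 20 h as mean of two plates; 100% = untreated growth and lower means inhibition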
* hit, by the source's call; . = no result given; & = joins results of further samples.

Molecule	GIV Gai3 FP	Sa growth 42C	Sa growth 42C second temp	HCMV UL50-53 inh
Cc1oc2ncnc(N3CCCC(C(=O)N(C)Cc4ccccc4)C3)c2c1C (configuration not stated)	104.2	.	.	2.7
CCOC(=O)c1ccccc1NC(=O)COc1cc(=O)n(CC)c2ccccc12	111.1	110.0	83.3	-9.3
CC1=CC2=C(C1=O)C(C(C)C)C(C#N)=C(N)S2 (configuration not stated)	105.3	92.1	102.8	21.6
CC(=O)c1cc(-c2ccccc2)n(CCC(=O)NC2CCCCC2)c1C	100.7	107.8	89.5	.
Cc1ccc(C(=O)NCc2ccc(F)cc2)cc1NC(=O)c1nsc2ccccc12	105.9	113.2	72.4	.
O=C(Nc1c[nH]c(=O)[nH]c1=O)c1cccc(C(=O)Nc2c[nH]c(=O)[nH]c2=O)c1	103.0	102.6	121.0	-4.5
COC(=O)c1sccc1Oc1ccc(C(F)(F)F)cc1NC(=O)c1ccco1	101.9	93.4	96.3	-14.7
CCC(=O)Nc1cc(C)nn1-c1ncnc2c1cnn2-c1ccc(F)cc1	103.9	.	.	-4.1

Reprinted at random: 5 records from the list.
Molecule	GIV Gai3 FP	Sa growth 42C	Sa growth 42C second temp	HCMV UL50-53 inh
CCOC(=O)c1ccccc1NC(=O)COc1cc(=O)n(CC)c2ccccc12	111.1	110.0	83.3	-9.3
CC(=O)c1cc(-c2ccccc2)n(CCC(=O)NC2CCCCC2)c1C	100.7	107.8	89.5	.
CCC(=O)Nc1cc(C)nn1-c1ncnc2c1cnn2-c1ccc(F)cc1	103.9	.	.	-4.1
Cc1oc2ncnc(N3CCCC(C(=O)N(C)Cc4ccccc4)C3)c2c1C (configuration not stated)	104.2	.	.	2.7
COC(=O)c1sccc1Oc1ccc(C(F)(F)F)cc1NC(=O)c1ccco1	101.9	93.4	96.3	-14.7

Other compounds.
Molecule	GIV Gai3 FP	Sa growth 42C	Sa growth 42C second temp	HCMV UL50-53 inh
C=CCOC(=O)C1=C(C)NC(SCC(N)=O)=C(C#N)C1c1ccccc1 (configuration not stated)	101.0	89.2	58.3	-18.2
Cc1cccc(NC(=O)Cn2cnc3sc(C)c(S(=O)(=O)N4CCC(C)CC4)c3c2=O)n1	100.6	101.1	95.9	-17.6
O=c1c2ccccc2n(Cc2cc(=O)n3ccccc3n2)c(=O)n1CCCS(=O)(=O)C1CCCCC1	104.3	82.1	92.5	-8.0
COc1cccc(CNC(=O)Cn2c(=O)c3cccn3c3ccc(F)cc32)c1	100.5	90.1	88.0	-16.0
O=C(COc1ccc(F)cc1)N(CC1=CCS(=O)(=O)C1)c1ccccc1	.	82.7	93.5	-7.0
COC(=O)c1ccc(CN)cc1	.	93.4	83.8	-35.4
Cc1ccc(C2C=C(c3ccccc3)Nc3nc(NS(=O)(=O)c4ccccc4)nn32)cc1 (configuration not stated)	105.8&103.6	117.7	98.2	-19.2&-25.0
COc1cc(-c2cc(-c3ccccc3)nc(SCC(=O)Nc3ncccn3)c2C#N)cc(OC)c1OC	100.8	.	.	-10.6

Quoted from the listing.
`O=c1c2ccccc2n(Cc2cc(=O)n3ccccc3n2)c(=O)n1CCCS(=O)(=O)C1CCCCC1` – HCMV UL50-53 inh: -8.0
`COC(=O)c1ccc(CN)cc1` – Sa growth 42C second temp: 83.8
`Cc1ccc(C2C=C(c3ccccc3)Nc3nc(NS(=O)(=O)c4ccccc4)nn32)cc1` (configuration not stated) – HCMV UL50-53 inh: -19.2&-25.0
`Cc1cccc(NC(=O)Cn2cnc3sc(C)c(S(=O)(=O)N4CCC(C)CC4)c3c2=O)n1` – HCMV UL50-53 inh: -17.6
`C=CCOC(=O)C1=C(C)NC(SCC(N)=O)=C(C#N)C1c1ccccc1` (configuration not stated) – Sa growth 42C second temp: 58.3

The listing picks up, repeating the 2 entries before the break.
Molecule	GIV Gai3 FP	Sa growth 42C	Sa growth 42C second temp	HCMV UL50-53 inh
Cc1ccc(C2C=C(c3ccccc3)Nc3nc(NS(=O)(=O)c4ccccc4)nn32)cc1 (configuration not stated)	105.8&103.6	117.7	98.2	-19.2&-25.0
COc1cc(-c2cc(-c3ccccc3)nc(SCC(=O)Nc3ncccn3)c2C#N)cc(OC)c1OC	100.8	.	.	-10.6
CCSc1nc2sc3c(c2c(=O)n1-c1ccccc1)CCN(C)C3	101.3	99.0	79.4	-14.4
CCOC(=O)c1c(C)[nH]c(C)c1S(=O)(=O)N1CCC(C(=O)NCc2cccc(OC)c2)CC1	109.1	120.2	88.9	.
O=C(O)CCC12CC3CC(CC(Cl)(C3)C1)C2	.	106.7	88.1	-18.7
O=C(CCc1ccccc1)NN1C(=O)CCC1=O	106.4	103.6	100.4	15.1
Cc1oc(-c2ccc(Cl)cc2)nc1CS(=O)CC(=O)NC1CCCC1 (configuration not stated)	111.6	109.1	86.5	-2.2
CC(C)(C)CC(=O)N1CCN(c2cc(C(F)(F)F)ccn2)CC1	102.2	104.1	82.5	0.8
Cc1ccc(S(=O)(=O)N2c3ccccc3C(C)(c3ccccc3)CC2(C)C)cc1 (configuration not stated)	.	138.9	111.8	-7.1
CCOC(=O)/C=C1\SCC(=O)N1CC(O)CN1C(=O)CS/C1=C\C(=O)OCC	.	98.6	85.0	-9.3
O=C1CCCN1c1cccc2ccccc12	103.6	108.5	81.8	-18.8
CC1CCc2c(nc3ncnn3c2NCCN(C)C)C1 (configuration not stated)	103.5	94.3	76.9	-12.8
COC(=O)c1cccc(N=C(N)N=C(N)N)c1	99.1	84.3	86.4	-34.6
CC1CN(C(=O)CCC(=O)O)c2ccccc2O1 (configuration not stated)	108.5	97.9	88.8	4.5
CN(Cc1cccs1)C(=O)[C@@H]1CCCN1C(=O)c1cccs1	.	71.0	89.8	-17.8
N#C/C(=C\c1ccco1)C(=O)Nc1ccccc1	103.5	96.2	92.9	-47.2
Cc1ccc(C(=O)Oc2ccc(C3Oc4ccccc4C4CC(c5ccc(Br)cc5)=NN43)cc2)cc1 (configuration not stated)	96.6	.	.	-23.6
CCn1cc(C(=O)O)c(=O)c2cnc(N3CCN(C(=S)Nc4ccccc4)CC3)nc21	103.9	50.1	59.3	-31.4

Sorted by the number under Sa growth 42C second temp (highest first): three of the compounds above
mol	GIV Gai3 FP	Sa growth 42C second temp
CCOC(=O)c1c(C)[nH]c(C)c1S(=O)(=O)N1CCC(C(=O)NCc2cccc(OC)c2)CC1	109.1	88.9
CCOC(=O)/C=C1\SCC(=O)N1CC(O)CN1C(=O)CS/C1=C\C(=O)OCC	.	85.0
CC(C)(C)CC(=O)N1CCN(c2cc(C(F)(F)F)ccn2)CC1	102.2	82.5

Further compounds follow:
Molecule	GIV Gai3 FP	Sa growth 42C	Sa growth 42C second temp	HCMV UL50-53 inh
CCOC(=O)c1ccc(Nc2scc(C)[n+]2C)cc1	109.4	103.0	82.8	-1.4
COC(=O)COc1ccc(Oc2cc(C)nc(SC)n2)nn1	108.6	100.7	93.2	11.2
CC1CCc2c(cnc3ncnn23)C1 (configuration not stated)	.	100.4	96.7	17.4
COc1ccc(Cl)cc1S(=O)(=O)c1c(C(=O)N2CCCCC2)cnc2ccccc12	104.2	.	.	-3.5
Cc1cc(C)n(CC(=O)NCc2ccccc2)c(=O)c1S(=O)(=O)c1ccc(Br)cc1	105.7	.	.	-10.5
O=S(=O)(Nc1cccc(-c2ccc(N3CCCCCC3)nn2)c1)c1ccc(F)cc1	104.2	132.7	99.8	.
O=C(NNc1ccccc1)Nc1ccccc1F	.	77.3	96.9	-27.6
Cc1c(C(=O)NCC2COc3ccccc3O2)sc2ncnc(N3CCCCC3C)c12 (configuration not stated)	102.8	.	.	-14.8
CCc1ccc(N(CC)C(=O)CCn2cnc3onc(-c4ccc(F)cc4)c3c2=O)cc1	104.2	120.1	98.6	.
CC(=O)Nc1cc(Cl)ccc1N1CCOCC1	102.7	101.8	98.5	-0.7
CSc1ncccc1C(=O)OC(C)C(N)=O (configuration not stated)	.	91.2	90.3	-27.0
CCCc1nnc2n1NC(c1ccc(C)cc1)C(C(=O)Nc1cc(Cl)ccc1C)S2 (configuration not stated)	104.9	.	.	-10.8
O=c1oc2cccnc2n1CCS(=O)(=O)c1ccc(F)cc1	106.1	102.2	79.6	-22.6
Cc1ccc(CNC(=O)CSc2ccc(-c3sc(-c4ccccc4)nc3C)nn2)cc1	106.8	91.5	74.6	.
Cc1ccc2[nH]cc(NC(=O)NCCN(C)C)c(=O)c2c1	104.1	107.1	79.9	-14.8
CCN(CC)S(=O)(=O)c1ccc(N=Cc2c(O)n(-c3ccccc3)c(=O)[nH]c2=O)c(C)c1	127.7	110.4	104.3	-15.3
O=C(c1cccc(Cl)c1)N1CCC(N2CCN(Cc3ccc(F)cc3)C2=O)CC1	110.8	.	.	-25.8
Oc1c(Br)cc(Br)cc1C=NC1CC1	.	69.2	74.6	12.6
Cc1ccc(Nc2nnc(C)c(=O)[nH]2)cc1C	96.7	.	.	-15.5
CC1=CCC2(CC1)COC(C(C)C)OC2 (configuration not stated)	99.6	85.8	78.8	-16.2
Cc1cccc(N(C(=O)Nc2ccc(Cl)cc2)C2=NCC(C)S2)n1 (configuration not stated)	.	99.3	90.7	-8.1
N#CCc1ccc2cc(CC#N)ccc2c1	102.4	95.9	95.0	-0.6
CC1CCc2c(sc3nc(-c4cc5ccccc5oc4=O)nc(Cl)c23)C1 (configuration not stated)	120.6	94.8	88.2	-5.9
Cc1cc2c(cc1C)C(=O)C(N1CCOCC1)=C(c1ccccc1)C2=O	105.1	67.8	64.0	-49.0
O=C(N/N=C/c1ccc(N2CCCCC2)cc1)c1cccnc1	.	104.5	95.5	-63.4
Cc1ccc(CN2CCN(C(=O)C3CC=CCC3C(=O)O)CC2)cc1 (configuration not stated)	102.7	103.3	103.0	15.7
O=C(OCc1cn2cc(Cl)ccc2n1)C1=NN(c2ccccc2)C(=O)CC1	.	98.1	81.2	-8.8
CC1(N=Cc2ccccc2)CCS(=O)(=O)C1 (configuration not stated)	.	89.4	91.2	-8.5
CCOC(=O)c1ccccc1NC(=O)CN1C(=O)CC(c2ccccc2)Sc2ccccc21 (configuration not stated)	105.4	101.4	85.1	-29.6
Cc1ccc2cc3c(nc2c1)N(S(=O)(=O)c1ccc2c(c1)OCCO2)CC3	96.6	.	.	4.5
O=C1CCCN1CCC12CC3CC(CC(C3)C1)C2	104.6	96.8	84.0	.
CC(C)c1cc[nH]c1-c1ccccc1	.	97.5	90.0	-7.8
CC1CN(C(=O)C2CCC2)CC(C)O1 (configuration not stated)	.	97.9	84.0	-33.4
C=CCN(C(=O)c1ccc(C)s1)c1nc(-c2ccc(S(C)(=O)=O)cc2)cs1	.	77.0	90.3	-28.6
Cc1cc(NC(=O)CNCC2CCCCC2)no1	96.9	82.5	107.4	11.8
S=c1cc(N2CCSCC2)[nH]cn1	97.9	.	.	-39.7
c1ccc(Cn2nnc3c(Sc4nnc(-c5ccncc5)o4)ncnc32)cc1	94.8	96.6	84.8	-15.3
CCc1ccc(NC(=O)C2CCN(c3nnc(-n4c(C)ccc4C)s3)CC2)cc1	102.0	96.5	87.7	-8.4
N#Cc1nc(COc2cccc(Cl)c2)oc1N1CCCC1	96.7	89.1	61.2	.
CCOC(=O)C1=C(N)OC2=C(C(=O)CC(c3ccccc3)C2)C1c1cccc(Cl)c1 (configuration not stated)	105.8	.	.	-5.8
[O-][n+]1ccccc1SC1=COCCC1	102.0	89.4	74.2	-16.5
O=C(C1Sc2nnc(-c3ccccc3)n2NC1c1ccccc1)N1CCCCC1 (configuration not stated)	110.3	92.1	92.6	19.5
O=C(N/N=C/c1ccc2c(c1)OCCO2)c1ccncc1	.	70.7	81.6	-78.8
Cc1ccc(-c2nc(-c3cccs3)c(-c3cccs3)[nH]2)cc1	98.8	110.7	90.5	-24.7

Source: PubChem
